Screens (PubChem)
GIRK2 activ: activators of human GIRK2 potassium channels | P48051 | HEK293-GIRK2 thallium flux, Thallos fluorescence | calls only for hits at 25 µM | 63,000 tested, 0.05% active | AID 1259325;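 active means among the strongest 0.2% of first-round signals and kept after retests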;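 further: first round at about 10 µM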
Target sequence (P48051 whole entry, looked up): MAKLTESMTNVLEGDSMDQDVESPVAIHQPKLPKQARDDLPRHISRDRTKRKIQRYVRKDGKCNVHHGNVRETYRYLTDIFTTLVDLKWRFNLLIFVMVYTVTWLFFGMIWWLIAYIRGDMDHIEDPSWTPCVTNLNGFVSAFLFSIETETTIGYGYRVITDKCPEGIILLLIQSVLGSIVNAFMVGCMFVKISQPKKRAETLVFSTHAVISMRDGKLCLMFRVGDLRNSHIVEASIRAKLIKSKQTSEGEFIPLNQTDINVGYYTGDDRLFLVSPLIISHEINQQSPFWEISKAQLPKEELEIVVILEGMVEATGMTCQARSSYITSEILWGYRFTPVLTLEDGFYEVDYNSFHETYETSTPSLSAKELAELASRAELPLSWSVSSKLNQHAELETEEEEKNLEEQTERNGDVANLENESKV
Calls only.

Start of the listing, in advance, four compounds:
Screening C=CCn1c(N2CCN(CC(=O)OC)CC2)nc2c1c(=O)[nH]c(=O)n2C returned GIRK2 activ inactive.
COc1ccc(Br)c(C(=O)N2CCOCC2CO)c1 (centres undefined) was read as GIRK2 activ inactive.
COc1cccc(NC(=O)N2CCC(Oc3nc4c(C)ccc(C)c4s3)CC2)c1OC was read as GIRK2 activ inactive.
`COc1ccccc1N1CCN(CCNC(=O)C(=O)Nc2cccnc2)CC1` gave GIRK2 activ inactive.

All compounds of this part (from the top)
Screening C=CCn1c(N2CCN(CC(=O)OC)CC2)nc2c1c(=O)[nH]c(=O)n2C returned GIRK2 activ inactive.
COc1ccc(Br)c(C(=O)N2CCOCC2CO)c1 (centres undefined) was read as GIRK2 activ inactive.
COc1cccc(NC(=O)N2CCC(Oc3nc4c(C)ccc(C)c4s3)CC2)c1OC was read as GIRK2 activ inactive.
`COc1ccccc1N1CCN(CCNC(=O)C(=O)Nc2cccnc2)CC1` gave GIRK2 activ inactive.
`Cn1c(SCC(N)=O)nnc1-c1cccc(S(=O)(=O)N2CCCCC2)c1` gave GIRK2 activ inactive.
For Nc1nc(SCc2ccc3c(c2)OCCO3)n[nH]1 the results were GIRK2 activ inactive.
Screening CC(C)(C)c1ccc2c(c1)OCC(=O)N2Cc1nc(-c2ccc3c(c2)OCO3)no1 returned GIRK2 activ inactive.
For O=C1/C(=C/c2c[nH]c3ccccc23)Oc2cc(O)ccc21 the results were GIRK2 activ inactive.
`Cc1nc2c(c(=O)n1CC(=O)NCc1ccccc1Br)CCN(Cc1ccccc1)C2` gave GIRK2 activ inactive.
Screening OCCOCCN1CCN(C2=Nc3ccccc3Sc3ccccc32)CC1 returned GIRK2 activ inactive.
Cc1cc(C)nc(NC(=O)c2ccc(S(=O)(=O)N3CCOCC3)cc2)n1 was read as GIRK2 activ inactive.
`CCCCCC(O)/C=C/[C@H]1C[C@H]2C[C@@H](C1C/C=C\CCCC(=O)O)C2(C)C` (some centres undefined) gave GIRK2 activ inactive.
For Cc1ccc2[nH]c3c(=O)n(CCC(=O)NCc4ccc(F)c(Cl)c4)cnc3c2c1 the results were GIRK2 activ inactive.
Screening O=C(NCc1cnn2ccccc12)c1cc(-c2ccco2)on1 returned GIRK2 activ inactive.
For CCOC(=O)CCn1c(=O)c2c(nc3n(-c4ccccc4OC)c(C)cn23)n(C)c1=O the results were GIRK2 activ inactive.
O=C(Nc1ccc2cn[nH]c2c1)c1ccc([N+](=O)[O-])o1 was read as GIRK2 activ inactive.
O=C(NCCc1c[nH]c2ccccc12)c1ccc(Cn2c(=O)[nH]c3ccccc3c2=O)cc1 was read as GIRK2 activ inactive.
Screening COc1ccc(N2CCN(S(=O)(=O)CCNS(=O)(=O)c3ccccc3)CC2)cc1 returned GIRK2 activ inactive.
For c1cnc(N2CCN(Cc3ccc4c(c3)OCO4)CC2)nc1 the results were GIRK2 activ inactive.
Screening O=C(Cn1nc2c(SC3CCCCC3)nccn2c1=O)N1CCN(c2ccccc2)CC1 returned GIRK2 activ inactive.
`CC(C)c1nnc(SCC(=O)N2CCCCC2)c2c1cnn2-c1ccc(F)cc1` gave GIRK2 activ inactive.
For Cc1ccc(NC(=O)NCC(C)(O)c2ccco2)cc1C (centres undefined) the results were GIRK2 activ inactive.
`O=C(c1cccc(C(F)(F)F)c1)N1CCN(Cc2nnnn2-c2ccccc2)CC1` gave GIRK2 activ inactive.
COc1ccc(-c2ccc(N3CCN(C(=O)c4cc5ccccc5oc4=O)CC3)nn2)cc1 was read as GIRK2 activ inactive.

Structural class, the compounds so far with fluorine
For Cc1ccc2[nH]c3c(=O)n(CCC(=O)NCc4ccc(F)c(Cl)c4)cnc3c2c1 the results were GIRK2 activ inactive.
`CC(C)c1nnc(SCC(=O)N2CCCCC2)c2c1cnn2-c1ccc(F)cc1` gave GIRK2 activ inactive.
`O=C(c1cccc(C(F)(F)F)c1)N1CCN(Cc2nnnn2-c2ccccc2)CC1` gave GIRK2 activ inactive.

Later entries
Screening CCCCc1nc(Cl)c(CO)n1Cc1ccc(-c2ccccc2-c2nnn[nH]2)cc1 returned GIRK2 activ inactive.
COc1ccccc1CNC(=O)C(C)n1nc(C)ccc1=O (centres undefined) was read as GIRK2 activ inactive.
O=C(Nc1nnc(-c2ccco2)o1)Nc1ccccc1Cl was read as GIRK2 activ inactive.
O=C(CSc1nnc(N2CCN(C(=O)c3c(F)cccc3F)CC2)s1)Nc1ccccc1 was read as GIRK2 activ inactive.
`Cc1sc2ncnc(SCC(=O)N3CCOCC3)c2c1-c1ccc(Cl)cc1` gave GIRK2 activ inactive.
`COc1cc(-c2noc(Cc3nnc(-c4ccc(F)cc4)o3)n2)cc(OC)c1OC` gave GIRK2 activ inactive.
For CC(=O)c1ccc(NC(=O)CSC2=NNC3C4CC(c5ccccc5)NN4C=CN23)cc1 (centres undefined) the results were GIRK2 activ inactive.
Screening O=C(NCCCS(=O)(=O)N1CCN(c2ccccn2)CC1)C1(c2ccc(Cl)cc2)CCCC1 returned GIRK2 activ inactive.
For CC1=C(C(=O)Nc2cccc(Cl)c2)C(c2ccc(Cl)c([N+](=O)[O-])c2)NC(=S)N1 (centres undefined) the results were GIRK2 activ inactive.
For COCCNC(=O)c1ccc(NS(=O)(=O)c2ccc(C(C)(C)C)cc2)cc1 the results were GIRK2 activ inactive.
`COC(=O)c1ccsc1NC(=O)C1CCN(S(=O)(=O)c2ccc(F)cc2)CC1` gave GIRK2 activ inactive.
For COc1ccc(NC(=O)c2ccc(S(=O)(=O)N(C)C3CCCC3)cc2)cc1 the results were GIRK2 activ inactive.
For Cc1noc(C)c1CCC(=O)N1CCCSCC1CN1CCOCC1 (centres undefined) the results were GIRK2 activ inactive.
Screening CCNC(=O)Nc1ccccc1NC(=O)c1ccccc1C returned GIRK2 activ inactive.
Screening CC(C)c1ccc(OCC(=O)N2CCC(c3nn(C)c(=O)n3-c3ccccc3)CC2)cc1 returned GIRK2 activ inactive.
Screening COc1cccc(NC(=O)Nc2ccc3c(c2)N(S(C)(=O)=O)CCC3)c1OC returned GIRK2 activ inactive.
COc1cc(S(=O)(=O)NCc2cccnc2)c(OC)cc1Br was read as GIRK2 activ inactive.
For Cn1c(=O)c(C(=O)Nc2cccc(Br)c2)c(O)c2sccc21 the results were GIRK2 activ inactive.
`O=C1CCSCC(C(=O)Nc2ccc(C(F)(F)F)cc2)N1` (centres undefined) gave GIRK2 activ inactive.
`O=C(CN1CC(c2nc(Cc3ccccc3)no2)C1)NCc1ccco1` gave GIRK2 activ inactive.
Screening CCCCOC(=O)C1=C(C)NC(=O)NC1c1cccc(F)c1 (centres undefined) returned GIRK2 activ inactive.
`O=C(NC1CC(=O)N(C2CC2)C1)c1cc(Br)ccc1Cl` (centres undefined) gave GIRK2 activ inactive.
Screening O=C(Nc1ccc(Cl)c(Cl)c1)Nc1ccc2c(c1)CCCN2C(=O)C1CC1 returned GIRK2 activ inactive.
Screening CCCCC(=O)N1CCN(Cc2nc3ccccc3[nH]2)CC1 returned GIRK2 activ inactive.

Of the compounds above, 5 have two or more sulfur atoms:
`Cn1c(SCC(N)=O)nnc1-c1cccc(S(=O)(=O)N2CCCCC2)c1` gave GIRK2 activ inactive.
Screening COc1ccc(N2CCN(S(=O)(=O)CCNS(=O)(=O)c3ccccc3)CC2)cc1 returned GIRK2 activ inactive.
O=C(CSc1nnc(N2CCN(C(=O)c3c(F)cccc3F)CC2)s1)Nc1ccccc1 was read as GIRK2 activ inactive.
`Cc1sc2ncnc(SCC(=O)N3CCOCC3)c2c1-c1ccc(Cl)cc1` gave GIRK2 activ inactive.
`COC(=O)c1ccsc1NC(=O)C1CCN(S(=O)(=O)c2ccc(F)cc2)CC1` gave GIRK2 activ inactive.

(further entries)
For COc1ccc(-c2cc3c(SCC(=O)NCc4ccc(F)cc4)nccn3n2)cc1 the results were GIRK2 activ inactive.
O=C(c1ccc2c(c1)OCCO2)N(CCN1CCOCC1)c1nc2ccc(Cl)cc2s1 was read as GIRK2 activ inactive.
`COc1ccc(NC(=O)Cn2nc3c4cc(-c5ccc(F)cc5)nn4ccn3c2=O)c(OC)c1` gave GIRK2 activ inactive.
For CC(=O)c1cccc(NC(=O)Cn2cccc(-c3nc(-c4ccc(Br)cc4)no3)c2=O)c1 the results were GIRK2 activ inactive.
For CCOC(=O)c1sc(NC(=O)c2ccc3[nH]c(C)cc(=O)c3c2)nc1C the results were GIRK2 activ inactive.
COc1ccc(-c2ccc(=O)n(CCNS(=O)(=O)c3cc(C)c(OC)c(C)c3C)n2)cc1 was read as GIRK2 activ inactive.
`CN1CCN(c2ncc(NC(=O)c3ccc(F)cc3Cl)cn2)CC1` gave GIRK2 activ inactive.
Screening CCCCC[C@](C)(O)/C=C/[C@@H]1[C@@H](C/C=C\CCCC(=O)OC)[C@@H](O)C[C@H]1O returned GIRK2 activ inactive.
COc1cc(/C=C/C(=O)OC2CC3CCC2(C)C3(C)C)ccc1O (centres undefined) was read as GIRK2 activ inactive.
Screening CC(=O)OC(C)C(C)(O)C(=O)O[C@@H]1CC[C@]2(C)CC(=O)C(=C(C)C)C[C@H]2[C@]1(C)OC(C)=O (some centres undefined) returned GIRK2 activ inactive.
`Nc1ccccc1/C=C1\C(=O)Nc2ccccc21` gave GIRK2 activ inactive.
`CCC(C)NC(=O)CCn1c(=O)c2ccccc2n2c(SCC(=O)NCc3ccco3)nnc12` (centres undefined) gave GIRK2 activ inactive.
`COc1ccc(-c2coc3c4c(ccc3c2=O)OCN(c2ccccc2F)C4)cc1` gave GIRK2 activ inactive.
`Cc1ccc(N2C(=O)C(Cc3ccc(Cl)cc3Cl)S/C2=C(/C#N)C(N)=O)cc1` (centres undefined) gave GIRK2 activ inactive.
COc1ccc(Nc2c(C(=O)N3CCCCC3)cnc3nc(C)ccc23)cc1Cl was read as GIRK2 activ inactive.
For O=C(CN1CCN(S(=O)(=O)/C=C/c2ccccc2)CC1)c1ccco1 the results were GIRK2 activ inactive.
For Cc1ccc(-c2noc(C3CCN(CC(=O)N4CCN(c5ccccc5)CC4)CC3)n2)cc1 the results were GIRK2 activ inactive.
`CCCn1c(C(=O)Nc2cccc(NC(C)=O)c2)cc2c(=O)n(C)c(=O)n(C)c21` gave GIRK2 activ inactive.
Screening Cc1ccc(NC(=O)CSC2=Nc3ccccc3N=C(c3ccccn3)C2)cc1C returned GIRK2 activ inactive.
For COc1ccc(-c2csc(-c3nnn(-c4cccc(C(F)(F)F)c4)c3N)n2)cc1 the results were GIRK2 activ inactive.
Cc1ccc(C(O)CNS(=O)(=O)c2cccs2)o1 (centres undefined) was read as GIRK2 activ inactive.
Screening COc1ccccc1-n1nnc(C(=O)Nc2cccc(C(C)=O)c2)c1C returned GIRK2 activ inactive.
`CCCn1c(=O)c2c(nc3n2CC(C)CN3c2ccc(OC)cc2OC)n(C)c1=O` (centres undefined) gave GIRK2 activ inactive.
For CCN(CC)S(=O)(=O)c1ccc2nc(N3CCN(c4ccc(C)cc4C)CC3)cnc2c1 the results were GIRK2 activ inactive.
Screening Cc1nn(C)cc1S(=O)(=O)NC(C)(C)C returned GIRK2 activ inactive.
COc1ccc(OC)c(-c2cc(N)c(=O)n(CC(=O)NCc3ccc4c(c3)OCO4)n2)c1 was read as GIRK2 activ inactive.
Cc1nc(C)c(CNC(=O)C2CC(=O)N(c3ccc(C)c(C)c3)C2)s1 (centres undefined) was read as GIRK2 activ inactive.
COc1ccc(CCC(=O)Nc2ccc(Cn3cnc(C(=O)Nc4cccc(F)c4)c3)cc2)cc1 was read as GIRK2 activ inactive.
CCc1ccccc1N1CCN(C(=O)c2cc(OC)c(OC)c(OC)c2)CC1 was read as GIRK2 activ inactive.
Screening CN(C)CCNC(=O)c1ccc(S(=O)(=O)N2CCOCC2)cc1 returned GIRK2 activ inactive.
Screening COCCN(Cc1ccoc1)C(=O)C(C)(C)Oc1ccc(Cl)cc1 returned GIRK2 activ inactive.
Cc1ccc2[nH]c3c(=O)n(CCC(=O)N4CCN(c5cc(Cl)ccc5C)CC4)cnc3c2c1 was read as GIRK2 activ inactive.
COc1ccc(N2C(=O)C3N=NN(Cc4nc(-c5ccc6c(c5)OCO6)no4)C3C2=O)cc1OC (centres undefined) was read as GIRK2 activ inactive.
`COC(=O)c1cc(O)cc(OC)c1Oc1cc(C)cc(O)c1C(=O)OC` gave GIRK2 activ inactive.
Screening CCOc1ccccc1C1NC(=O)NC(C)=C1C(=O)OC1CCCC(C)C1 (centres undefined) returned GIRK2 activ inactive.
Screening Cc1nc(NC(=O)CSc2nnc(CCc3nc4ccccc4[nH]3)o2)sc1C(=O)N(C)C returned GIRK2 activ inactive.
Screening O=C(NCCC1=CCCCC1)C(=O)NCCN1CCN(c2ccc(F)cc2)CC1 returned GIRK2 activ inactive.
Screening Cc1cc(C(=O)NCC2(O)CCCC2)c(C)o1 returned GIRK2 activ inactive.
`CCCCn1c(C(=O)Nc2ccc(OC)cc2OC)cc2c(=O)n(C)c(=O)n(C)c21` gave GIRK2 activ inactive.
Cc1cc(C)cc(NC(=O)c2nnn(Cc3nc(-c4cccc(C)c4)oc3C)c2N)c1 was read as GIRK2 activ inactive.
Screening CC(=O)Nc1nc2c(s1)CN(CC(=O)Nc1ccc(Br)cc1)CC2 returned GIRK2 activ inactive.
COc1ccc(-n2cc(C(=O)N3CCN(c4ccc(F)cc4)CC3)nn2)cc1 was read as GIRK2 activ inactive.
COC(=O)N1CCC(CNC(=O)C(=O)Nc2ccc3c(c2)CCCN3C(=O)c2cccs2)CC1 was read as GIRK2 activ inactive.
`CCc1cc(=O)[nH]c(-n2ncc(C(=O)NC3CCCC3)c2C)n1` gave GIRK2 activ inactive.
`Cn1c(=O)n(CCN2CCOCC2)c(=O)c2c1nc1n(-c3ccccc3)c(-c3ccccc3)cn21` gave GIRK2 activ inactive.
For O=C(Nc1ccc(F)c(F)c1)c1nnn(-c2ccc(F)cc2)n1 the results were GIRK2 activ inactive.
Screening CCOc1ccc(C(=O)Nc2ccc3c(c2)N(C(=O)c2ccccc2)CCC3)cc1OCC returned GIRK2 activ inactive.
COc1ccc(N2CCCS2(=O)=O)cc1NC(=O)C(C)(C)CCl was read as GIRK2 activ inactive.

Some of the compounds tested. The share of hits here may be higher or lower than overall.
